Bm FixLJ act – increases Burkholderia fixLJ two-component signaling; B. multivorans fixK-promoter GFP reporter, 18 h; active compounds read high; z-score (concentration not given with the values); 29,000 tested, 0.3% active;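 active means replicate mean overnight rise in green fluorescent reporter signal, 3 or more SD over negative controls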;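 further: score is relative to vehicle wells of the plate; 300 nL library stock went into each well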
* marks the source's active call; other numbers are inactive results.

SMILES	Bm FixLJ act
CCCCC(=O)OC1=C(C(=O)c2ccccc2)N(CC)S(=O)(=O)c2ccccc21	0.41
Cc1nnc(N2CCN(c3ccccc3F)CC2)c2c1nnn2Cc1ccc(F)cc1	-0.36
CCNC(=O)c1ccc(NC(=O)NCCn2ccnc2CC)cc1Cl	-0.59
CCn1c(CN2CCOc3ccc(Cl)cc3C2)nnc1C1CC(N)C1 (stereo unspecified)	-0.05
CCN(C(=O)Cn1c(=O)n(-c2ccccc2)c(=O)c2ccc(C(=O)NCc3ccc4c(c3)OCO4)cc21)c1cccc(C)c1	1.9
NC(=O)N1CCCC1C(=O)NCCc1noc(C(F)(F)F)n1 (stereo unspecified)	-0.74
CCN(C(=O)c1cn(CC)c(=O)c2cc(OC)c(OC)cc12)c1ccc(C)c(C)c1	0.48
N#Cc1cccc(NC(=O)c2cc3c(s2)-c2ccc(Cl)cc2SC3)c1	-2.8
COC(=O)CCSc1nc2sc3c(c2c(=O)n1Cc1ccccc1)CCC(C(C)(C)C)C3 (stereo unspecified)	-1.1
CN1CCC[C@]2(C(=O)O)CCN(c3nccc(N4CCC(O)CC4)n3)C[C@H]12	-2.5
CC(C)(O)C#Cc1cccc(C(=O)N2CCCC3(CCc4cn[nH]c43)C2)c1 (stereo unspecified)	-0.66
Cc1ccc(-c2cc(C(=O)NC(c3cnn(C)c3)C3CC(O)C3)n[nH]2)o1 (stereo unspecified)	0.01
COCC1(NC(=O)c2ccc(-c3ncccc3C)cc2)CCCC1	-0.92
CCc1ccc2oc(C(=O)Nc3cccc(C(F)(F)F)c3)cc(=O)c2c1	-2.6
COc1cc2[nH]c(=O)n(CCCCCC(=O)N3CCN(c4ccc(Cl)cc4)CC3)c(=O)c2cc1OC	-0.6
Cc1ccccc1C(=O)N(Cc1nc(-c2ccc(Cl)cc2)no1)C(C)C	-1.7
COCCNC(=O)c1cccc(NC(=O)c2sccc2Cl)c1C	-1.7
NC(=O)C1(N2CCCCC2)CCN(C(=O)Nc2ccc(C(F)(F)F)cc2)CC1	0.61
CO[C@@]1(NC(=O)C(C(=O)O)c2ccc(O)cc2)C(=O)N2C(C(=O)O)=C(CSc3nnnn3C)CO[C@@H]21 (stereo partly specified)	0.15
Cc1cc(C(F)F)n2nc(C(=O)Nc3cccc(Cl)c3C)nc2n1	-1.8
COC(=O)c1ccc(Cn2nnc3c(=O)[nH]c(C4CCCN(S(=O)(=O)c5ccccc5)C4)nc32)cc1 (stereo unspecified)	-0.39
Cc1nc(N(C)C)ncc1C(=O)NC1COCC1Cc1ccncc1 (stereo unspecified)	-1.1
O=C(NC1(C(F)(F)F)N=C(c2ccccc2)N(Cc2ccccc2)C1=O)c1ccc(F)cc1 (stereo unspecified)	-3.6
Cn1c(=O)c2sccc2n2c(CCCC(=O)Nc3ccc(F)c(F)c3)nnc12	0.69
COc1ccc(C(=O)N(Cc2ccc(N(C)C)cc2)CC2CCCO2)cc1 (stereo unspecified)	-0.01
O=C(OCc1ccccc1F)c1ccc(-c2nnn(Cc3ccccc3)n2)cc1	-0.37
CCCN(CCC)C(=O)C1CCCN(S(=O)(=O)c2cc(Br)cc3c2N(C(=O)CC)CC3)C1 (stereo unspecified)	-2.1
Cc1cnccc1NCCNC(=O)c1ccc(C)c(NC(=O)C2CCCC2)c1	-1.2
CCn1c(C(=O)NCc2ccccc2Cl)cc2sc(Cl)cc21	0.44
COc1ccc(CCn2c(=O)c3cccnc3n(CC(=O)Nc3ccc(C)c(F)c3)c2=O)cc1OC	-3.7
COc1ccc(-c2nc(CNS(=O)(=O)c3ccc(Br)cc3)cs2)cc1	-1.4
CCOC(=O)c1ccc(-n2c(-c3ccc(C)cc3)c(C)n3c4c(=O)n(C)c(=O)n(C)c4nc23)cc1	-0.65
Cc1sc2c(c1C)c(=O)n(Cc1ccccc1)c(=O)n2CC(=O)Nc1cccc(Cl)c1	-1
CCn1cc(C(=O)NCc2ccc(C)cc2)c(=O)c2cc(S(=O)(=O)N(C)C3CCCCC3)ccc21	-0.21
CC(=O)N1CCN(C(=O)c2cn3c(C)cccc3n2)C2CS(=O)(=O)CC21 (stereo unspecified)	-0.93
COc1cccc(CNC(=O)CCc2nnc3n(C)c(=O)c4sccc4n23)c1	-0.88
CN1C[C@]23C=CC(O2)C(C(=O)NCCCc2csc(N)n2)C3C1=O (stereo partly specified)	0.24
Cc1nn2c(-c3cccc(NC(=O)c4ccccc4)c3)nnc2c2ccccc12	-0.43
CN(C)S(=O)(=O)N(CC(=O)NCCSCc1c(F)cccc1Cl)c1ccccc1	-1.3
CN1C(c2ccccc2Cl)C(C(=O)N2CCOCC2)C[C@@]1(C)C(=O)O (stereo partly specified)	-1.2
Cc1ccc(NC(=O)Cn2nc(C(F)(F)F)c3c2CCCC3)cc1	-0.59
O=C(Nc1ccccc1F)c1ccc(-c2ccccc2)s1	-0.55
Cc1n[nH]c(C)c1CCCNC(=O)Nc1ccc(OC2CCN(C)CC2)cc1	0.45
COc1ccc(S(=O)(=O)Nc2c(C)n(C)n(-c3ccccc3)c2=O)cc1Br	0.06
CCOC(=O)c1c(-c2ccccc2)csc1NC(=O)c1cc(-c2ccc(Br)cc2)on1	-1.4
Cc1cccc(NC(=O)C2CCCN(S(=O)(=O)c3c(C)noc3/C=C/N(C)C)C2)c1C (stereo unspecified)	-0.4
Cc1noc(C)c1CNC(=O)C1CCN(c2ccc(C(F)(F)F)cn2)C1 (stereo unspecified)	0.67
Cc1ccc(C(=O)COC(=O)C(CC(C)C)NC(=O)C2CCC(C)CC2)cc1 (stereo unspecified)	-1.5
CCOc1ccc(C(=O)/C=C/c2cn(CC(O)CN3CCCCCC3)c3ccccc23)cc1 (stereo unspecified)	-4.3
CC(=O)c1cccc(NC(=O)CCc2nc3cccnc3n2Cc2cccs2)c1	-1.2
Cc1ccc(-n2c(=O)c3c(cnn3C)n(CC(=O)Nc3cccc(Cl)c3)c2=O)cc1	0.02
COc1ccc(CCCc2nnc(SCC(=O)Nc3cccc(C)c3)o2)cc1C	-0.07
Cc1ccc(-n2c(=O)c3c(cnn3C)n(CC(=O)Nc3ccc(C)cc3C)c2=O)cc1	-0.08
CC(C)OC(=O)c1c(NC(=O)COc2cccc(Br)c2)sc2c1CCCC2	0.67
CCc1ccc(S(=O)(=O)c2nnn3c2nc(Nc2ccc(F)cc2)c2cc(Cl)ccc23)cc1	-1.1
CCOC(=O)c1cnc2ccccc2c1NCCc1ccc(OC)c(OC)c1	-0.79
CC(NC(=O)c1ccc(C(F)(F)F)nc1)c1nncn1C(C)C (stereo unspecified)	-0.1
O=C(NCCC1=CCCCC1)c1ccc2c(c1)N(Cc1ccc(F)cc1)C(=O)c1ccccc1S2(=O)=O	0.41
COc1ccccc1CNCCSc1nnnn1C	-1.9
COCCN(C)c1ccc(C(=O)N2CCCCC2CCn2cccn2)cn1 (stereo unspecified)	-1.8
More compounds.
SMILES	Bm FixLJ act
COc1ccc2c(c1)CC(C(=O)NCc1nc(C)c3c(n1)CCCC3)CO2 (stereo unspecified)	-0.59
COc1cccnc1-c1cccc(C(=O)N2CCCC(C(N)=O)C2)c1 (stereo unspecified)	1.3
COc1cccc(C(=O)COC(=O)c2cc(-c3cccs3)nc3ccccc23)c1	-2.1
COc1ccc(Nc2ncc(C(=O)N3CCN(c4ccc(OC)cc4)CC3)c3ccccc23)cc1	0.92
COCCN(Cc1ccco1)C(=O)c1cc2c(Cl)nc3ccc(C)cc3c2s1	-0.97
CC(C)(C)C1CCc2c(sc(NC(=O)CCC(=O)O)c2C(=O)Nc2ccccc2C(F)(F)F)C1 (stereo unspecified)	-2.6
C=CCN(Cc1ccccc1OC)C(=O)c1cc(F)cc(C#N)c1	-0.28
CN(C)C(=O)N1CCC(C(=O)N2CCCC3(CCc4cn[nH]c43)C2)CC1 (stereo unspecified)	-0.86
COc1ccc(CCNC(=O)C(=O)Nc2ccc(C)c(C)c2)cc1	-2
O=C(Cn1ncc2c3ccccc3n(Cc3ccccc3)c2c1=O)NCc1cccs1	-0.73
Cc1ccc(NC(=O)C(=O)NCCCN2CCOCC2)cc1C	-0.06
CCn1c(SCCOc2ccccc2F)nc2ccccc21	0.29

A portion from further up, as a working copy:
SMILES	Bm FixLJ act
COc1ccccc1CNCCSc1nnnn1C	-1.9
COCCN(C)c1ccc(C(=O)N2CCCCC2CCn2cccn2)cn1 (stereo unspecified)	-1.8
COc1ccc2c(c1)CC(C(=O)NCc1nc(C)c3c(n1)CCCC3)CO2 (stereo unspecified)	-0.59
COc1cccnc1-c1cccc(C(=O)N2CCCC(C(N)=O)C2)c1 (stereo unspecified)	1.3
COc1cccc(C(=O)COC(=O)c2cc(-c3cccs3)nc3ccccc23)c1	-2.1
COc1ccc(Nc2ncc(C(=O)N3CCN(c4ccc(OC)cc4)CC3)c3ccccc23)cc1	0.92
COCCN(Cc1ccco1)C(=O)c1cc2c(Cl)nc3ccc(C)cc3c2s1	-0.97
CC(C)(C)C1CCc2c(sc(NC(=O)CCC(=O)O)c2C(=O)Nc2ccccc2C(F)(F)F)C1 (stereo unspecified)	-2.6
C=CCN(Cc1ccccc1OC)C(=O)c1cc(F)cc(C#N)c1	-0.28
CN(C)C(=O)N1CCC(C(=O)N2CCCC3(CCc4cn[nH]c43)C2)CC1 (stereo unspecified)	-0.86
COc1ccc(CCNC(=O)C(=O)Nc2ccc(C)c(C)c2)cc1	-2
O=C(Cn1ncc2c3ccccc3n(Cc3ccccc3)c2c1=O)NCc1cccs1	-0.73
Cc1ccc(NC(=O)C(=O)NCCCN2CCOCC2)cc1C	-0.06
CCn1c(SCCOc2ccccc2F)nc2ccccc21	0.29

Other compounds
SMILES	Bm FixLJ act
Clc1ccccc1Cn1c(-c2cccs2)nc2ccccc21	0.06
CC(=O)S[C@@H]1CC2=CC(=O)CC[C@]2(C)[C@H]2CC[C@@]3(C)[C@@H](CC[C@@]34CCC(=O)O4)C12 (stereo partly specified)	0.33
CCN[C@H]1C[C@H](C)S(=O)(=O)c2sc(S(N)(=O)=O)cc21	-1.1
Cc1nc(C2CCCN2C(=O)c2cccc(OCCN)c2)n[nH]1 (stereo unspecified)	-0.09
Cc1cc2oc(C(=O)Nc3sc4c(c3C(=O)NCc3ccccc3)CCCC4)cc(=O)c2cc1C	-2
COc1ccc(CCNC(=O)c2ccc3c(c2)N(Cc2ccc(Cl)cc2)CCS3)c(OC)c1	0.38
COc1ccc(OC)c(-c2nc(CN3CCN(C(C)=O)CC3)c(C)o2)c1	0.37
O=c1oc2ccc3ccccc3c2cc1-c1nnc(Nc2ccccc2)s1	-0.07
CSCc1ccc(C(=O)N(CCO)C2(C)CCS(=O)(=O)C2)o1 (stereo unspecified)	-1
Cc1ccccc1C(=O)N1CC[C@@]2(C(=O)O)CCCN(C)[C@H]2C1	-0.76
Cc1c(C(=O)N2CCC3(CC2)OCCCC3O)n(C)c2ccccc12 (stereo unspecified)	-0.28
CCOc1ccc(C(=O)NCCn2cc(SCC(=O)NCCc3ccc(OC)c(OC)c3)c3ccccc32)cc1	-0.28
CCn1cc(CN(C)C(=O)CC(Cc2ccccc2)c2ccco2)cn1 (stereo unspecified)	1.7
COc1ccc(C2CC(=O)c3cc(-c4nc(-c5cccc([N+](=O)[O-])c5)cs4)c(=O)n(-c4ccc(F)cc4)c3C2)cc1 (stereo unspecified)	0.39
O=C(Nc1ccc2oc(-c3ccc(Cl)cc3)nc2c1)c1ccc2ccccc2c1	-0.26
Cc1ccccc1-c1ccnc2[nH]n(-c3ccccc3)c(=O)c12	-1.5
O=C(CC1C=CCC1)N1CCC2(CC1)c1nc[nH]c1CCN2C(=O)C1CC1 (stereo unspecified)	-0.05
COc1ccc(N2CCN(C(=O)CCCCn3c(=O)[nH]c4ccsc4c3=O)CC2)cc1	0.71
COCCCCCC(=O)N1CC2CCC(C1)N(Cc1cscn1)C2=O (stereo unspecified)	0.87
COc1cc(NC(=O)c2ccc(C)cc2)ccc1NC(=O)c1cc2ccccc2o1	-1.3
Cc1cc(Cl)cc(C)c1NC(=O)NCCS(C)(=O)=O	-0.86
C[N+]1(C)C2CC(OC(=O)[C@@H](CO)c3ccccc3)CC1C1OC12 (stereo partly specified)	0.06
CC(C)(C)c1ccc(C(=O)NC2COCC2Cc2ccncc2)cc1 (stereo unspecified)	-2.3
COc1ccc(CCNC(=O)CCCn2c(=O)c3ccccc3n(CC(=O)Nc3ccccc3C)c2=O)cc1OC	-1

Brought forward from above: two compounds, followed by the next part.
SMILES	Bm FixLJ act
CC(C)(C)c1ccc(C(=O)NC2COCC2Cc2ccncc2)cc1 (stereo unspecified)	-2.3
COc1ccc(CCNC(=O)CCCn2c(=O)c3ccccc3n(CC(=O)Nc3ccccc3C)c2=O)cc1OC	-1
CCN1C(=O)c2ccccc2S(=O)c2ccc(C(=O)NCc3ccc(F)cc3)cc21 (stereo unspecified)	-0.69
CCOc1ccc(NC(=O)CCc2c(C)nc3cc(-c4ccc(Cl)cc4)nn3c2C)cc1	0.05
COc1ccc(Nc2nc3ccccc3nc2NS(=O)(=O)c2ccc(Cl)cc2)cc1OC	-0.18
CCOC(=O)Cn1cnc2onc(-c3ccc(F)cc3)c2c1=O	-0.37
CCOC(=O)c1c(NC(=O)/C=C/c2ccc(OCC)cc2)sc2c1CCCC2	-2.2
O=C(c1cnc(C2CC2)[nH]c1=O)N(CCc1ccccc1)Cc1ccccn1	0.78
COc1ccc(Cl)cc1S(=O)(=O)Nc1ccc2c(c1)n(C)c(=O)n2C	-2
O=C(Cn1cc(C(=O)c2ccccc2)c2ccccc21)Nc1ccc(Br)cc1	-1.3
CN1C(C(=O)c2ccccc2)=C(NC(=O)c2ccc(F)cc2)c2ccccc2S1(=O)=O	7.5*
CC(=O)N1CCC(C(=O)Nc2c(C)cnn2Cc2cccc(C)c2)CC1	-2
N#Cc1nccnc1N1CCC2(CN(C(=O)c3ccc4ncsc4c3)CCO2)C1 (stereo unspecified)	-0.43
CC1CC(=O)N(CC(=O)Nc2ccc(OC(F)(F)F)cc2)c2ccccc2S1 (stereo unspecified)	-2.5
COc1ccc(NC(=O)CCS(=O)(=O)c2nc(-c3cccs3)cc(C(F)(F)F)n2)cc1OC	0.6

Compound activity from PubChem BioAssay.

The list is partial. The share of hits here may be higher or lower than overall.
